Compound activity: PubChem, several laboratories
HSV replic up: HSV replication enhancement. HSV replication augmentation in cells, fold increase. maximum fold increase. actives 0.005% (n = 220,000). AID 1956;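 active = peak rise of 1.5-fold or more in the series; inconclusive = self-fluorescent or not available for retest; tested in PC3 cells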;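 note: first round at 10 µM; read as green reporter fluorescence; hits show the peak of a series up to 25 µM; 1 = signal of infected wells without compound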
RGS16-Gao: RGS16-Galphao interaction regulator (human). binding response (% of control), % at 10 µM. O15492+P09471. actives 0.38% (n = 220,000). bead-based flow cytometry RGS16-Galphao binding, fluorescence; actives lie on both sides;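 active = below 25% or above 175%, edge rows of some plates excepted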;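 note: Galphao activated by GDP with aluminum fluoride before binding; 100% = wells without compound and 0% = beads without RGS; some results beyond the cut were filed as inactive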
PKD1 inh: PKD1 (human) kinase inhibition; actives 0.056% (n = 200,000); AID 797; PKD1 kinase fluorescence polarization assay; inhibition, %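 (about 10 µM by stock and volumes)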;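 active = inhibition of 50% or more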;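 note: controls were vehicle for no effect and a reference inhibitor for full effect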
Target sequence (Q15139 whole entry, looked up): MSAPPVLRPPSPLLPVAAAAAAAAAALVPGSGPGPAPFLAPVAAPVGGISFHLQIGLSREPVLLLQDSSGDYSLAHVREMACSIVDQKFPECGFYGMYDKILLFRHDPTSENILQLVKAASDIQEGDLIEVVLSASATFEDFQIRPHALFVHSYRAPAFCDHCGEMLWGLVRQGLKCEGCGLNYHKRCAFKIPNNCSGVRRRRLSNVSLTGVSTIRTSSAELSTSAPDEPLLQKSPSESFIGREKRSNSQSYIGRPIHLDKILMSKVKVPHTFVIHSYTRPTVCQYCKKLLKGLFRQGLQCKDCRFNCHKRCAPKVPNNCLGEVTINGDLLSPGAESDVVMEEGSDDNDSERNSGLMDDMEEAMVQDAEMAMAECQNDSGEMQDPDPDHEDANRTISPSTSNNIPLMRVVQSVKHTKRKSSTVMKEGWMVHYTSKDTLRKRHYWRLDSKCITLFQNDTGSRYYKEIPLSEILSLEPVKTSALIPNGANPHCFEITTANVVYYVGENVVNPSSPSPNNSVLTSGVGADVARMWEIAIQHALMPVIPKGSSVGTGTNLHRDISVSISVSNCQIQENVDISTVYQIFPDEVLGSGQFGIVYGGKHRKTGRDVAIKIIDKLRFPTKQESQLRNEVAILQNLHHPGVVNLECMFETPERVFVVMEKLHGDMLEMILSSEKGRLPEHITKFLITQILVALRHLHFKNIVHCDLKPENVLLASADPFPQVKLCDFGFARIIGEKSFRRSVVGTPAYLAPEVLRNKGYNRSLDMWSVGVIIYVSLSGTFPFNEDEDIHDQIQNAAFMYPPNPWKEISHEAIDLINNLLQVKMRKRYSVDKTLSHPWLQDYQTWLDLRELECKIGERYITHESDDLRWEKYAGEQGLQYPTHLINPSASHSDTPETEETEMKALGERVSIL
Insulin prom inh: TRM-6 insulin promoter activity inhibition | TRM-6 cells (human fetal islet line), insulin promoter-eGFP reporter, imaging; reporter expression induced with tamoxifen | inhibition, % at 2 µM | actives 0.9% (n = 130,000) | AID 1273;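 active = inhibition above the mean plus 3 SD, with well images judged a real hit on visual review, cut at about 60% in these data, passing the limit was not always enough; inconclusive = inhibition over the cutoff but images rejected on review; inactive = inhibition not above the cutoff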
GALR2 ag: agonists of human galanin receptor 2 (GALR2). O43603. GALR2-expressing cells, agonist activation read-out. activation, %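 (tested at 5 µM)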. actives 0.48% (n = 140,000);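 active = above mean plus 3 SD of all compounds, about 5% in these data, not always enough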;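 note: 0% = vehicle buffer wells and 100% = reference agonist at full effect; tested in CHO reporter cells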
Insulin prom inh cell count: recorded beside Insulin prom inh, whose call it bears; normalized cell count, %; measured here: cell count, toxicity; reference of the scale not given here;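 cells exposed to compound for 48 h; stained nuclei by imaging scaled within each plate; lower means fewer cells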
HSV replic up primary fold: further read-out of HSV replic up, marked with its call; fold increase; compound at 10 µM; measured here: primary screen fold increase 10 uM; tested in PC3 cells;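 GFP signal in the first replicate; 1 = infected wells without compound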
* hit, by the source's call; i = inactive; u = inconclusive; x = no result given.

SMILES	HSV replic up	HSV replic up primary fold	RGS16-Gao	PKD1 inh	Insulin prom inh	Insulin prom inh cell count	GALR2 ag
COc1ccc(S(=O)(=O)NC2(C(F)(F)F)N=C3SCCN3C2=O)cc1 (configuration not stated)	i	0.92	103	11	50	67	-0.4
COc1ccc(OC)c(C(=O)CSc2nnc(-c3cccs3)n2C)c1	i	0.96	78	4	24	146	-1.6
Cc1[nH]c(=O)[nH]c(=O)c1/C=N/NC(=O)[C@H](C)N	i	1.3	100	x	x	x	x
O=C(Nc1cc(C(F)(F)F)ccc1N1CCOCC1)c1ccc(Cl)nc1	i	0.88	107	-2	27	110	-2.0
CCOCCCNc1nc2c(C)cccn2c(=O)c1/C=C1\SC(=S)N(C(C)CC)C1=O (configuration not stated)	u	x	107	x	x	x	x
CN(C)c1nc(N(C)C)nc(N2CC(=O)N(c3ccccc3)C2=N)n1	i	1.2	107	5	x	x	x
CCCc1c(NC(=O)Nc2ccc(F)cc2)cnn1-c1ccc(Cl)cc1	i	0.97	99	x	x	x	x
CS(=O)(=O)c1ccc(Cl)c(NC(=O)COC(=O)/C=C/c2cnc3ccccc3n2)c1	i	1.1	98	x	x	x	x
CC(=O)Nc1nc2c(c3c1c(=O)oc1ccccc13)CCCC2	i	0.75	98	-11	x	x	-0.7
OCC#CCSc1nnc(-c2ccccc2Br)o1	i	0.86	106	-7	-18	149	-5.0
O=C(COc1ccccc1)Nc1ccc(Cl)cc1Cl	i	0.94	98	-9	x	x	x
CCOC(=O)C1=C(C)NC(=O)NC1c1c(O)ccc2ccccc12 (configuration not stated)	i	0.89	92	-12	x	x	-3.2
CCCC1CCC(c2ccc(/C(N)=N/O)cc2)CC1 (configuration not stated)	i	0.8	98	-4	x	x	x
C[C@H](NC(=O)OC(C)(C)C)C(=O)N/N=C/c1ccc2nccnc2c1	i	0.93	102	x	x	x	x
CCC(C)NS(=O)(=O)c1ccc(-c2csnn2)s1 (configuration not stated)	i	0.98	105	1	-11	90	0.3
CCOc1ccc(-c2cn(-c3cccc(SC)c3)c(=O)[nH]2)cc1	i	1.1	82	-3	26	105	0.0
COc1ccc(N(C(=O)C(C)C)S(=O)(=O)c2cccc([N+](=O)[O-])c2)cc1	i	0.98	101	-4	-129	121	x
Cc1ccc(CSCCNS(=O)(=O)c2ccc(C)cc2)cc1	i	0.97	100	0	x	x	-1.6
CCOC(=O)N1CCC(NC(=O)CN2C(=O)COc3ccc(C(C)(C)C)cc32)CC1	x	x	97	-6	x	x	-0.5
Cc1ccc(CS/C(Nc2ccccc2C)=C(\C#N)C(=O)NCc2ccco2)c(C)c1	i	0.94	99	0	14	67	-1.0
CS(=O)(=O)N(CC(=O)N1CCN(Cc2ccccc2)CC1)Cc1ccccc1	i	0.96	132	-1	-33	74	-2.5
Cc1ccc(NC(=O)CN(C)CC(=O)Nc2cccc(F)c2)cc1[N+](=O)[O-]	i	1.1	103	4	x	x	x
COc1ccc(Cn2c(=O)[nH]c3cc(C(=O)NCCc4ccc(S(N)(=O)=O)cc4)ccc3c2=O)cc1	i	0.98	114	0	27	145	x
CC1(C)CNc2cc(N)ccc2S1	i	0.97	98	-5	x	x	x
CC(=O)OCc1c(C)cc(C)c(/C=C(/C#N)C(N)=O)c1C	i	1	81	-1	x	x	x
Next structures.
SMILES	HSV replic up	HSV replic up primary fold	RGS16-Gao	PKD1 inh	Insulin prom inh	Insulin prom inh cell count	GALR2 ag
COC(=O)CCC(=O)Nc1cccc([N+](=O)[O-])c1	i	1.1	114	-8	18	46	x
COc1ccc2c(OC)cc(-c3ccccc3)nc2c1	i	0.82	114	-7	100*	100*	-2.9
O=S(=O)(c1ccc(Br)cc1)N1CCn2c(nc3ccccc32)C1	i	0.84	103	0	x	x	-2.7
Cc1ccc(S(=O)(=O)Nc2ccc3c(c2)nc(CCN2CCOCC2)n3C)cc1	i	0.96	100	x	x	x	x
Cc1cc(C)c(NC(=O)Cn2nnc(C(=O)NCc3cccs3)c2N)c(C)c1	i	0.91	97	-5	-52	74	-0.4
CCCCn1nnc(NC(=O)c2ccc(-c3cccc([N+](=O)[O-])c3)o2)n1	i	1	102	-6	x	x	x
Cn1nc(OC(=O)Nc2ccc(F)cc2)cc1C(F)(F)F	i	1	100	-2	x	x	62*
Oc1c(C(c2cccs2)N2CCN(c3ccc(F)cc3)CC2)sc2ncnn12 (configuration not stated)	i	0.75	98	-3	x	x	-1.1
COCCSc1ccccc1C(=O)Nc1ccc2c(c1)OCCO2	i	0.9	108	-7	-143	152	-2.2
O=C(NCc1ccco1)C1CCN(S(=O)(=O)Cc2ccccc2)CC1	i	1.1	112	-9	-356	38	-1.5
N#Cc1ccc(Cl)cc1NC(=O)COC(=O)[C@H](CCC(N)=O)NC(=O)c1ccc(F)cc1	i	0.91	104	-7	-28	120	-1.8
COCCNc1nc(C)c(C(C)=O)s1	i	0.96	100	-10	0	149	x
Nc1[nH]n2c(=O)c3c(nc2c1N=Nc1ccccc1)CCCC3	i	0.73	98	-11	x	x	-1.3
CC1CCCN(C(=O)c2ccc(COc3ccccc3Br)cc2)C1 (configuration not stated)	i	0.86	100	2	1	116	-3.3
CCOc1ccc(N2C(=O)CC(Sc3ncccn3)C2=O)cc1 (configuration not stated)	i	0.96	103	-3	-11	158	-0.9
COc1ccccc1-n1c(SCC(N)=O)nc2sc3c(c2c1=O)CCC3	i	0.62	99	x	x	x	x
CNc1c([N+](=O)[O-])cnn1-c1cccc(Cl)n1	i	0.77	102	2	3	93	x
COc1ccc(N=Cc2sc3ccccc3c2Cl)cc1	i	0.83	108	-5	x	x	-2.6
O=C(O)CCCCCN1C(=O)/C(=C\c2ccncc2)SC1=S	i	0.93	205	5	-71	94	-0.7
S=c1[nH]nc(-c2cccnc2)n1/N=C/C=C/c1ccccc1	i	0.98	24	-12	x	x	-1.6
COc1cccc(Nc2c3c(nc4c(-c5ccccc5)c(C)nn24)CCC3)c1	i	0.98	152	-8	94*	138*	1.7
CSc1nnc(Cc2cc(=O)[nH]c(=O)[nH]2)n1-c1cccc(C)c1	i	0.75	97	-11	x	x	-2.6
COc1ccc(OC)c(NC(=O)COC(=O)/C=C/c2ccccc2Cl)c1	i	0.79	103	-2	x	x	-1.7
COc1ccc(C2OCC3(CO2)SC(=O)NC3=O)cc1 (configuration not stated)	i	1	102	-18	73*	146*	-1.3
COc1cccc(C(=O)NCC(c2cccnc2)N2CCN(c3ccccc3OC)CC2)c1 (configuration not stated)	x	x	134	-12	x	x	-1.5

Twelve structures out of the list, arranged by number of heavy atoms, low to high:
SMILES	HSV replic up	HSV replic up primary fold	RGS16-Gao	PKD1 inh	Insulin prom inh	Insulin prom inh cell count	GALR2 ag
COCCNc1nc(C)c(C(C)=O)s1	i	0.96	100	-10	0	149	x
CNc1c([N+](=O)[O-])cnn1-c1cccc(Cl)n1	i	0.77	102	2	3	93	x
COc1ccc2c(OC)cc(-c3ccccc3)nc2c1	i	0.82	114	-7	100*	100*	-2.9
S=c1[nH]nc(-c2cccnc2)n1/N=C/C=C/c1ccccc1	i	0.98	24	-12	x	x	-1.6
CSc1nnc(Cc2cc(=O)[nH]c(=O)[nH]2)n1-c1cccc(C)c1	i	0.75	97	-11	x	x	-2.6
COCCSc1ccccc1C(=O)Nc1ccc2c(c1)OCCO2	i	0.9	108	-7	-143	152	-2.2
O=C(NCc1ccco1)C1CCN(S(=O)(=O)Cc2ccccc2)CC1	i	1.1	112	-9	-356	38	-1.5
COc1ccc(OC)c(NC(=O)COC(=O)/C=C/c2ccccc2Cl)c1	i	0.79	103	-2	x	x	-1.7
COc1cccc(Nc2c3c(nc4c(-c5ccccc5)c(C)nn24)CCC3)c1	i	0.98	152	-8	94*	138*	1.7
Cc1ccc(S(=O)(=O)Nc2ccc3c(c2)nc(CCN2CCOCC2)n3C)cc1	i	0.96	100	x	x	x	x
N#Cc1ccc(Cl)cc1NC(=O)COC(=O)[C@H](CCC(N)=O)NC(=O)c1ccc(F)cc1	i	0.91	104	-7	-28	120	-1.8
COc1cccc(C(=O)NCC(c2cccnc2)N2CCN(c3ccccc3OC)CC2)c1 (configuration not stated)	x	x	134	-12	x	x	-1.5

Next section
SMILES	HSV replic up	HSV replic up primary fold	RGS16-Gao	PKD1 inh	Insulin prom inh	Insulin prom inh cell count	GALR2 ag
COC(=O)c1cc(S(=O)(=O)Nc2nn(C)c3cccc(F)c23)oc1C	i	1.1	102	x	x	x	x
S=C(c1ccc(-c2ccc(Cl)cc2)o1)N1CCCCC1	i	0.98	102	8	-7	99	-2.7
CCCOc1ccc(OCCNC2CCCC2)cc1	i	1.1	76	-2	x	x	-2.5
O=C1c2ccccc2C(Nc2ccccc2F)N1c1cccnc1 (configuration not stated)	i	0.93	60	-9	x	x	-1.4
Cc1ccc(Cn2nnc3c(=O)[nH]c(C4CCN(C(=O)c5cccs5)CC4)nc32)cc1	i	0.96	103	-2	14	115	-0.2
CC(C)(C)C(=O)Nc1ccc(C(=O)N/N=C/C2CC3C=CC2C3)cc1 (configuration not stated)	x	x	104	10	8	125	0.0
CCCC1CCc2c(sc(NC(=O)OCC)c2C#N)C1 (configuration not stated)	i	0.72	146	-8	-169	56	-0.7
O=C(Cn1c(=O)oc2cc(S(=O)(=O)N3CCCCC3)ccc21)N1CCc2ccccc21	x	x	95	-15	x	x	-2.1
COc1cc(/C=C/C(=O)O)cc(S(=O)(=O)NCC2CCCO2)c1OC (configuration not stated)	i	0.97	82	x	x	x	x
COc1ccccc1-n1cnc2cc(NCc3ccccc3O)ccc21	i	0.88	96	x	x	x	x
CCNc1nc(NCC)n2c(SCC(=O)Nc3ccccc3)nnc2n1	i	1	93	-3	x	x	x
COC(=O)c1c(N2C(=O)CC(Sc3ncccc3C(=O)O)C2=O)sc(C)c1C (configuration not stated)	i	1	103	x	x	x	x
COc1ccc(S(=O)(=O)N(C)CC(=O)N2CCCCCC2)cc1OC	i	0.93	88	-17	34	76	-0.4
Cc1cc2cc(CNS(=O)(=O)c3ccccc3)ccc2n1C	i	1	158	4	x	x	0.1
O=C(NCCc1c[nH]c2ccccc12)c1cccc(S(=O)(=O)Nc2ccccc2Cl)c1	i	1	104	6	x	x	0.6
Cc1ccccc1Cn1c(CN2CCc3ccccc3C2)nc2c1c(=O)n(C)c(=O)n2C	i	0.96	102	-1	-14	71	1.2
O=C(NC1CC1)C1C2C3C4CC5C3C5C4C12 (configuration not stated)	i	1	103	-2	x	x	-0.3
CCOC(=O)CNC(=S)N(Cc1ccccc1)Cc1cccs1	i	1.1	102	-1	0	109	x
O=C(O)CSc1ncn[nH]1	i	1.1	102	3	77*	12*	-3.0
COc1ccc2[nH]c3c(=O)n(CCCN4CCOCC4)cnc3c2c1	i	0.95	101	x	x	x	x
CC(C)CC(NC(=O)c1ccccc1)C(=O)N/N=C/c1ccco1 (configuration not stated)	i	0.94	100	-3	-7	184	-0.5
Cc1cn(C2OC(COC(=O)c3ccccc3)C(O)C2O)c(=O)[nH]c1=O (configuration not stated)	i	0.99	107	-3	x	x	-2.4
CN(C)C(C)(C)/C=C/C(O)(c1ccccc1)c1ccccc1	i	0.96	112	x	x	x	x
O=C(CCn1cnc2ccccc21)N/N=C/c1ccccc1O	i	0.95	87	0	-135	105	-0.4
OCCNCCNCc1ccc(-c2ccccc2)cc1	i	0.79	102	1	-7	118	x
Carrying on.
SMILES	HSV replic up	HSV replic up primary fold	RGS16-Gao	PKD1 inh	Insulin prom inh	Insulin prom inh cell count	GALR2 ag
NC(=O)C1CCN(C(=O)c2ccc3c(=O)n(Cc4ccco4)c(SCC(=O)c4ccc(F)cc4)nc3c2)CC1	i	0.83	103	0	10	109	x
CCOC(=O)N=Nc1c(O)n(CC)c2ccccc12	i	0.99	111	14	33	161	-2.2
CSCCC(NC(=O)COc1ccccc1)C(=O)N1CCN(c2ccccc2F)CC1 (configuration not stated)	i	0.66	100	0	-37	55	0.1
COC(=O)CC(=O)CSc1nc(C)cc(C)c1C#N	i	0.85	104	0	34	135	-1.3
CCOc1cc(N2CCOCC2)c(OCC)cc1NC(=O)C(C)C	i	0.96	98	x	x	x	x
COc1cc(/C=N/NC(=O)CNc2n[nH]c(=O)[nH]c2=O)ccc1OCc1ccccc1	i	0.85	103	x	x	x	x
COc1ccc(N2CCN(C(=O)C3CCCN(S(=O)(=O)c4cccc5cccnc45)C3)CC2)cc1 (configuration not stated)	i	1.1	102	-10	x	x	-1.3
